Source: PubChem BioAssay
Mtb growth: M. tuberculosis H37Rv growth inhibitors, H37Rv strain (AID 1626); 220,000 tested, 0.95% active; inhibition, % at 10 µM; hits with a dose series show IC50 in µM; M. tuberculosis H37Rv growth inhibition; higher % means a stronger effect;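 active means confirmed in a dose series; inconclusive means inhibition above 80% but not taken into the dose series; inactive means below 80% or under 30% at every dose of the series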;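 further: bacteria incubated seven days before Alamar blue readout; 0% = bacteria only wells and 100% = bacteria with antibiotic wells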
RecA intein inh: Mtb RecA intein splicing inhibition. P9WHJ3. cell-free RecA intein splicing, fluorescence. inhibition, %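 (about 9 µM by stock and volumes)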. 290,000 tested, 0.75% active. AID 2221; in the data active means inhibition above about 30%; inconclusive means no clear call, values can overlap the other calls;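 further: 0% = vehicle wells and 100% = reference inhibitor control wells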
Target sequence (P9WHJ3 whole entry, looked up): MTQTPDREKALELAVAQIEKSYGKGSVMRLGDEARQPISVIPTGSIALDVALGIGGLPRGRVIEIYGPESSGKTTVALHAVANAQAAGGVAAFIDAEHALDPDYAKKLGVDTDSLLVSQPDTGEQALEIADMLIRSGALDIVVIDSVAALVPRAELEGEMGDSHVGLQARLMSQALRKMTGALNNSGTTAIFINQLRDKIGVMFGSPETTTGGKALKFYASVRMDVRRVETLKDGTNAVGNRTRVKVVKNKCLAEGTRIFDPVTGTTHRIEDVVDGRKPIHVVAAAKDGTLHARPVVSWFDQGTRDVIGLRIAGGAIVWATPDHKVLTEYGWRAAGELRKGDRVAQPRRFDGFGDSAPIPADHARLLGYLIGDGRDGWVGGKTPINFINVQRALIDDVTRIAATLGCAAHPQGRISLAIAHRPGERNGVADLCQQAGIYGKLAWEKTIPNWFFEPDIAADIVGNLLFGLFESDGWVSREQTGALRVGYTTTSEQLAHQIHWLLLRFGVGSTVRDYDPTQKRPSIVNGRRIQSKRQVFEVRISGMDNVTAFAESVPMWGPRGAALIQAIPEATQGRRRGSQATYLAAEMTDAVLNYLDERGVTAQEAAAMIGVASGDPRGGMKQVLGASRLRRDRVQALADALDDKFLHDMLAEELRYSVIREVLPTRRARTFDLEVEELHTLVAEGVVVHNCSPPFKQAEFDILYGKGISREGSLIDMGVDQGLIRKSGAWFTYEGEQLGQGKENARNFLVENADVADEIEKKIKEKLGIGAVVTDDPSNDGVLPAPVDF
Mtb bLac sens: beta-lactam sensitization of Mtb H37Rv; inhibition, % at 25 µM; M. tuberculosis H37Rv growth with meropenem, percent inhibition; hits of this screen are not shown here; 330,000 tested, 0.27% active; AID 434955;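 active means about 74% or more and at least 40 points above the plate without the antibiotic, then above 30% in a dose series; inconclusive means first-round hits that could not be retested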;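 further: growth measured after seven days incubation then overnight dye step; 0% = bacteria only wells and 100% = bacteria with antibiotic; twin plates without the antibiotic show which effects depend on it; some results filed as inactive read as strong as hits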
YopH inh: YopH (Yersinia) phosphatase inhibition. inhibition, %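 (about 10 µM by stock and volumes)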. fluorescence Ex485/Em525. 140,000 tested, 0.16% active;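 active means inhibition of 50% or more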;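 further: controls were vehicle for no effect and minimum signal wells for full effect; inactives centre near -20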
Arbovirus anti: blocks arbovirus infection; arbovirus infection cell-based antiviral screen; inhibition, % at 10 µM; 200,000 tested, 0.37% active; AID 1251;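 active means inhibition from about 30%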;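 further: bluetongue infection of BSR cells; cell survival read as ATP light after 72 h; 0% = infected wells without compound and 100% = uninfected wells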
Arbovirus anti repeat: second read-out of Arbovirus anti, no call of its own (marks repeat the call); inhibition, %; measured here: 10K subset replicate screen; many hits read low in the repeat;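 first of two repeat runs on a subset; 0% = infected and 100% = uninfected wells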
Numbers without * were called inactive; ? = inconclusive; / = no result given. This is a subset, so the mix of outcomes need not match the whole.

SMILES | Mtb growth | RecA intein inh | Mtb bLac sens | YopH inh | Arbovirus anti | others
CCOC(=O)Cc1cc(=O)n2[nH]c(-c3ccccc3)cc2n1 | -7.3% | / | 8.5 | -31.0 | 0.6
CCOC(=O)c1ccc(-n2c(CN(CC)CC)nc3ccc([N+](=O)[O-])cc3c2=O)cc1 | 54.1µM* | -7.3 | 87.4 | / | 12.0
O=C(c1c(F)cccc1Cl)N1CCN(S(=O)(=O)c2ccc3c(c2)OCCCO3)CC1 | / | 0.6 | -15.8 | / | /
COc1ccc(NC(=O)c2ccco2)c(OC)c1 | -9.5% | 0.2 | 1.4 | -42.7 | 0.6
N#Cc1cn(-c2ccccc2)nc1C(=O)c1ccccc1 | 8.4% | 1.1 | -5.0 | 9.5 | -6.3
COc1ccc(C(=O)NC(C)CCc2ccccc2)cc1 (stereo unspecified) | / | -1.3 | 1.4 | / | /
CCOc1cccc(-c2nnc3sc(COc4ccc(Cl)cc4)nn23)c1 | 0.8% | -1.1 | 3.0 | -61.3 | 1.1
CSc1nnc(-c2ccccc2N=Cc2c(C)[nH]n(-c3ccccc3)c2=O)c(=O)[nH]1 | 0.1% | 0.4 | -2.9 | -7.9 | 3.7
COc1ccccc1CCc1nnc(CCC(=O)NC(C)Cc2ccsc2)o1 (stereo unspecified) | 6.5% | -3.1 | -5.5 | / | 4.2
Cc1nc2ccc(S(=O)(=O)NC(C(=O)N3CCCC3)C(C)C)cc2s1 (stereo unspecified) | -7.7% | 1.3 | 14.7 | -12.6 | 6.5 | Arbovirus anti repeat=0.9
O=C(N/N=C/c1ccc[nH]1)c1ccccc1[N+](=O)[O-] | -6.1% | -2.3 | 1.9 | -20.0 | -1.2
COc1ccc(NC(=O)CC2Oc3ccccc3NC2=O)cc1 (stereo unspecified) | -3.3% | / | 4.1 | 7.7 | -3.2
Cc1ccc2nc(NC(=O)c3ccc(Cn4cc(Cl)cn4)o3)sc2c1 | -4.0% | 0.1 | -6.3 | -14.6 | 10.4
N/C(=N\OC(=O)c1ccc(Cl)c([N+](=O)[O-])c1)c1ccccc1 | / | 4.0 | 3.6 | / | /
Nc1ccc(NC2C[C@@H](C(=O)O)NC2=O)cc1 (stereo partly specified) | 1.4% | -0.6 | -10.1 | / | 1.1
CCN(CC)CCCNc1nc(N)c([N+](=O)[O-])c(N2CCCCCC2)n1 | / | 2.3 | -2.4 | / | /
CC(=O)NC1=C(NC2CCS(=O)(=O)C2)C(=O)c2ccccc2C1=O (stereo unspecified) | 1.9% | 20.1 | 1.8 | -3.5 | -10.9
CC1CCN(CCNC(=O)C2CCCN(S(=O)(=O)c3cccc4nonc34)C2)CC1 (stereo unspecified) | 3.0% | -1.2 | -5.9 | 7.7 | 0.0
NC1=NC(=O)/C(=C/c2cc(Br)c(O)c(Br)c2)S1 | / | -34.2 | 6.4 | / | /
CCOc1cc(/C=C2\NC(=S)N(c3c(C)n(C)n(-c4ccccc4)c3=O)C2=O)ccc1O | -3.0% | -2.6 | -2.5 | 0.6 | 2.4

Filtered by structure, the compounds so far with an NH in an aromatic ring.
SMILES | Mtb growth | RecA intein inh | Mtb bLac sens | YopH inh | Arbovirus anti | others
CCOC(=O)Cc1cc(=O)n2[nH]c(-c3ccccc3)cc2n1 | -7.3% | / | 8.5 | -31.0 | 0.6
CSc1nnc(-c2ccccc2N=Cc2c(C)[nH]n(-c3ccccc3)c2=O)c(=O)[nH]1 | 0.1% | 0.4 | -2.9 | -7.9 | 3.7
O=C(N/N=C/c1ccc[nH]1)c1ccccc1[N+](=O)[O-] | -6.1% | -2.3 | 1.9 | -20.0 | -1.2

(further entries)
SMILES | Mtb growth | RecA intein inh | Mtb bLac sens | YopH inh | Arbovirus anti | others
CC(C)N(O)C(=O)NC(C)(C)C | -8.8% | / | -6.1 | 33.9 | 1.6
O=C(Nc1cccc([N+](=O)[O-])c1)N1CCc2ccccc2C1 | / | 4.5 | 2.6 | / | /
CN1CCN(C(c2ccc(F)cc2)c2nnnn2Cc2cccs2)CC1 (stereo unspecified) | -7.3% | 0.8 | -7.2 | -36.0 | 5.9
COc1ccc(S(=O)(=O)N2CCC(NC(=O)C(Cc3cccc(OC)c3OC)NC(C)=O)CC2)cc1 (stereo unspecified) | -2.6% | -1.1 | -1.1 | / | 0.5
Cc1cc(C)nc(SCc2ccc(C(=O)N/N=C/C3CCCCC3)cc2)n1 | 3.8% | 2.4 | 9.9 | -28.0 | -4.5
O=C(NC(=S)NNC(=O)c1cccs1)c1ccccc1 | / | 6.0 | 95.9 | / | /
Cc1onc(-c2ccccc2)c1C(=O)Nc1ncc([N+](=O)[O-])s1 | / | -1.4 | -4.4 | / | /
CCOC(=O)/C(C#N)=C/c1cn(CCC(=O)O)nc1-c1ccccc1 | -1.5% | 0.2 | 2.3 | -21.7 | -8.8
c1ccc(C(c2ccccc2)N2CCN(C(c3ccccn3)c3nnnn3C3CCCC3)CC2)cc1 (stereo unspecified) | 6.5% | -1.2 | 1.1 | / | 16.6
CCn1c(-c2ccccc2Cl)nn(CC(=O)Nc2ccccc2C)c1=S | -3.1% | -0.3 | -15.5 | -30.8 | 1.5
COc1ccc(C(=O)N2CCCC(C(=O)O)C2)c2ccccc12 (stereo unspecified) | / | 1.8 | -4.0 | / | /
O=C(/C=C/c1cccc(C(F)(F)F)c1)N1CCN(c2ccccn2)CC1 | / | 5.9 | 0.2 | / | /
COC(=O)Cc1ccc(NC(=O)c2ccc(NC(=O)c3ccco3)cc2)cc1 | 28.4% | 0.9 | 1.4 | / | -4.9
Cc1onc(-c2ccccc2Cl)c1C(=O)OCC(=O)N1CCCc2ccccc21 | 0.7% | 10.5 | -8.6 | -37.8 | 0.1
COCCNC(=O)CN(C(=O)Cn1nnc2ccccc21)c1cccc(C)c1C | 2.2% | -0.2 | -8.0 | / | 5.7
Cc1ccc(-n2ncc3c2CCCC3NC(=O)CCc2cnn(C)c2)cc1C (stereo unspecified) | / | 2.7 | -7.0 | / | /
CC1=NN(c2ccc(C)c(C)c2)C(=O)/C1=C/c1ccc2c(c1)n(C)c(=O)n2C | -2.2% | -1.5 | 1.5 | -17.2 | -4.6
Cc1ccc(C)c(OCC(=O)NNC(=O)c2ccc(NC(=O)C3CC3)cc2)c1 | / | 1.9 | 1.9 | / | /
O=c1oc(-c2ccccc2NS(=O)(=O)c2ccc3ccccc3c2)nc2ccccc12 | 7.8% | -0.2 | -2.4 | -3.0 | 30.4*
COc1ccc(C(=O)NCc2nnc(SCC(=O)Nc3cccc(C(F)(F)F)c3)o2)cc1OC | -1.2% | 0.7 | -8.0 | -26.6 | -0.1
O=C(NCc1ccccc1)C1=C[C@@H](c2ccc3c(c2)OCO3)C[C@@H](OCc2ccc(CO)cc2)O1 | -0.2% | 11.0 | -4.0 | / | /
CCOC(=O)C(C)N1C(=O)S/C(=C\c2ccc(-c3ccccc3C(=O)O)o2)C1=O (stereo unspecified) | / | -44.8 | ? | / | /
O=S1(=O)CCC(NC(=S)NCCNC(=S)NC2CCS(=O)(=O)C2)C1 (stereo unspecified) | 7.7% | -2.4 | 28.3 | -5.8 | -7.2
NC(Cc1ccc2nsnc2c1)C(=O)O (stereo unspecified) | -3.0% | 3.5 | 1.5 | -7.3 | /
CCN1C(=O)c2ccccc2Sc2ccc(C(=O)NCCC(C)C)cc21 | / | 4.8 | 1.1 | / | /
Clc1cc(Br)ccc1OCCn1ccnc1 | -5.0% | 0.6 | 13.8 | -26.4 | 1.7
COc1ccc(Cl)c2sc(N3CCN(C(C)=O)CC3)nc12 | / | -2.4 | -2.6 | / | /
Oc1[nH]c2ccccc2c1/C=N/c1nccs1 | / | -8.0 | 8.3 | -30.3 | 1.4
Cc1ccnc(NS(=O)(=O)c2ccc(NC(=O)C(C)(C)C)cc2)n1 | -6.9% | 0.5 | -1.7 | / | /
O=C(CCS(=O)(=O)c1ccccc1)N1CCCc2ccccc21 | / | 2.7 | -0.1 | / | /
CC(=O)Nc1ccc(CN2CCN(C3CCCC3)C(CCO)C2)cc1 (stereo unspecified) | 2.4% | -2.4 | -1.5 | / | 4.3
CSc1cccc(NC(=O)CN(C)S(=O)(=O)c2ccc(C)cc2)c1 | -2.1% | 2.1 | -11.6 | -5.0 | 1.2
CCCCOc1ccc(-c2c(C(=O)Nc3ccccc3)c(C)[nH]c(=S)c2C#N)cc1 | 8.7% | 3.3 | 11.1 | / | 8.6
CCOc1ccc(NC(=O)CSc2ccc(-c3ccccn3)nn2)cc1 | ? | -3.0 | 99.3 | -15.5 | -29.3
CC1SCC(NC(=O)c2ccccc2Cl)CS1 (stereo unspecified) | -1.1% | -0.1 | -3.5 | / | /
Cn1c(SCc2ccccn2)nnc1-c1ccncc1 | 0.3% | -3.1 | 4.2 | -34.6 | 5.9
COc1ccc(C(=O)N/C(=C\c2ccc(OC)c(OC)c2)C(=O)N2CCCCC2)cc1 | / | 1.8 | 3.5 | / | /
COc1ccc(S(=O)(=O)N(C)c2ccc(C(=O)N3CCOCC3)cc2)cc1 | 0.5% | 0.0 | -1.4 | -10.0 | 12.1
COc1ccccc1OCCSc1nc2ccc([N+](=O)[O-])cc2s1 | 3.8% | 5.4 | -1.8 | -31.9 | 7.3
CCN1CCN(C(=O)c2cc3c(=O)oc4ccc(C)cc4c3s2)CC1 | / | -0.5 | 1.7 | / | 4.6 | Arbovirus anti repeat=1.9
O=C(Nn1cnc2ccccc2c1=O)c1ccccc1[N+](=O)[O-] | -3.1% | -3.7 | -4.1 | / | 7.1
COc1ccc(CCn2c(-c3cc([N+](=O)[O-])cc([N+](=O)[O-])c3)nc3nc4ccccc4nc32)cc1OC | 79.9% | 1.6 | 6.8 | -23.1 | -11.0
O=C(NC(=O)c1ccccc1)Nc1ccccc1O | / | 0.7 | 0.7 | / | /
CC1CC(C)(C)Nc2ccc(N=O)cc21 (stereo unspecified) | 5.75µM* | -1.3 | / | / | -33.1
O=C(Oc1ccc2ccc(=O)oc2c1)c1ccc([N+](=O)[O-])cc1 | / | -13.1 | 0.7 | / | /
O=C1CCc2cc(S(=O)(=O)NCc3ccc(Cl)cc3)cc3c2N1CC3 | / | -2.2 | -10.8 | / | /
O=S(=O)(O)c1cc(O)c2c(O)c(N=Nc3cc(Cl)ccc3O)c(S(=O)(=O)O)cc2c1 | / | 1.3 | 11.4 | / | /
Cc1ccc(NC(=O)CCc2c[nH]c3ccccc23)nc1 | / | 2.1 | 3.0 | / | /
O=C(CCS(=O)(=O)c1ccccc1)Nc1ccc(S(=O)(=O)Nc2ncccn2)cc1 | / | 0.1 | 2.6 | / | /
Cc1cc(C)c2sc(N(CCCN(C)C)C(=O)COc3ccc(Cl)cc3)nc2c1 | 4.8% | 9.3 | / | / | -11.1
COCCCN(CCCN)Cc1ccco1 | 0.6% | 0.2 | 2.7 | -1.3 | -1.2
C=CCN(CC(=O)NCc1ccc(OC)cc1)C(=O)c1csnn1 | -6.2% | -4.0 | -1.0 | -14.6 | -1.7
CC(C)(C)c1cc(C2=CSC3=NCCN23)cc(C(C)(C)C)c1O | / | -1.7 | 34.6 | / | /
CCOC(=O)C1=C(Cn2cnc3ccccc32)NC(=O)NC1c1ccc(Cl)cc1 (stereo unspecified) | 4.0% | 6.6 | -5.8 | -10.8 | 7.6
CCOC(=O)C1=C(O)/C(=C\c2ccc(CNS(=O)(=O)c3ccc(Br)cc3)o2)N=C1C | 9.2% | -2.8 | -6.0 | -22.0 | 6.1
CSc1sc(-c2ccnc(SCC(=O)C(C)(C)C)n2)c2c1C(=O)CC(C)(C)C2 | 6.1% | -9.2 | -4.4 | / | /
COc1ccc(CNC(=S)NCc2ccc(OC)cc2)cc1 | 13.6% | 1.9 | -5.6 | / | 2.6
C=CCNC(=S)NNC(=O)c1cc(-c2cccnc2)nc2ccccc12 | / | 4.6 | 5.9 | / | /
NC(=O)c1cc(N2C(=O)C=CC2=O)ccc1Cl | 0.9% | 1.7 | -0.4 | -27.9 | 8.6
Oc1ccc(Cl)cc1C1=NNC(c2cccs2)C1 (stereo unspecified) | 46.8% | 7.7 | -4.7 | / | /
Later entries.
SMILES | Mtb growth | RecA intein inh | Mtb bLac sens | YopH inh | Arbovirus anti | others
Cc1cc2c(cc1C)N(CC(=O)N1CCCC1)C(=O)CC(c1ccccc1)=N2 | 5.8% | 0.0 | 35.6 | -13.8 | 4.9
O=C(CN1CCC(O)(c2ccc(F)cc2)CC1)NCc1ccc(F)cc1 | -9.9% | 0.4 | -3.5 | -48.0 | -8.1
CC(C)C(=O)Nc1nnc(SCC(=O)Nc2ccc3c(c2)OCCO3)s1 | 4.1% | 8.4 | 7.8 | / | 5.7
COC1(OC)C=CC(=O)C=C1NC(=O)c1ccccc1OC(C)=O | 1.0% | 3.9 | 86.9 | / | /
COc1ccc(NC(=O)c2n[nH]c(=O)c3ccccc23)cc1S(=O)(=O)N1CCCCC1 | 29.2% | 3.9 | -0.9 | 8.3 | -1.8
S=C(NCc1ccccc1)N1CCn2cccc2C1c1cccnc1 (stereo unspecified) | 3.5% | 2.4 | / | / | 33.8*
